# Ecoli growth: E. coli growth inhibition. hit rate 0.21% among 330,000. Escherichia coli growth, OD600, 23 h; active compounds read low. OD600 absorbance (no concentration beside the values);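 active = OD600 absorbance below the run mean of sample wells minus 3.6 SD, in any replicate, cut at about 0.56 in these data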;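 also: stock transfer was 300 nL into about 60 µL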
# Vif A3G: HIV-1 Vif–A3G interaction blockers – biochemical, TR-FRET, GST-Vif 1-94, biotin-A3G peptide, dose response retest, primary screen (AID 1117319) | TR-FRET GST-Vif / biotin-A3G peptide binding; higher % means a stronger effect; test concentration not given here; strong numbers were not always called active | inhibition, %; hits with a dose series show IC50 in µM | hit rate 0.57% among 260,000;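 active = above the screen mean plus three standard deviations and confirmed in dose response; inconclusive = results disagree or hit not tested in dose response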;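 also: Vif residues 1-94 fused to GST binding biotinylated APOBEC3G peptide 110-148; 0% = full assay without inhibitor and 100% = GST in place of GST-Vif; retest series ran down from 100 µM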
# UCH37 inh: human UCH37 deubiquitinating enzyme inhibition; purified proteasome/UCH37, Ub-AMC cleavage fluorescence; AID 588478; inhibition, % (concentration not given with the values); hit rate 0.33% among 330,000;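 active = mean of two replicates above 20%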;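 also: 0% = compound-free wells with enzyme and 100% = wells lacking proteasome; stock transfer was 100 nL into about 20 µL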
# Target sequence (Q9Y5K5 whole entry, looked up): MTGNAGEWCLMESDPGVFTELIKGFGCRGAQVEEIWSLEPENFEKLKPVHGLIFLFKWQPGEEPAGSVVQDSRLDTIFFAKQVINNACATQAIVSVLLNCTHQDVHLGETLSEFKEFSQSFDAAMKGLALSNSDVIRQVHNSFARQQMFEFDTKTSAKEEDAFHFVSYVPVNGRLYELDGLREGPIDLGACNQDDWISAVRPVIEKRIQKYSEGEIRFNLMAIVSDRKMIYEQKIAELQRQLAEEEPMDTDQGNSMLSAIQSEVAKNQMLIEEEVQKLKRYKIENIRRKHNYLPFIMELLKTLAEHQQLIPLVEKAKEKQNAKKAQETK
#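 assay system = human UCH37 enzyme supplied as purified proteasome complex | amount = proteasome at 0.15 nM in the dispensed enzyme solution | schedule = 30 min compound-proteasome preincubation then 25 min substrate reaction, room temperature | measured by = fluorescence, ex 355 nm, em 460 nm | benchmarks = no-proteasome wells (full inhibition) and compound-free wells (no inhibition)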
# B2AR ag: human beta-2 adrenergic receptor agonism by FAP; P07550; Am2.2-beta2AR cells, FAP receptor internalization, flow cytometry; reference of the scale not given here; response, % (no concentration beside the values); hit rate 0.43% among 340,000;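 active = response above a set limit, near 3 SD of response in nonfluorescent compounds, cut at about 42% in these data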;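 also: stock transfer was 100 nL into about 11 µL; a reference agonist was the positive control; negative values mostly stem from fluorescent compounds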
# A1 inh: inhibitors of the anti-apoptotic protein A1, read as caspase activation; caspase activation, % (no concentration beside the values); MEF A1-2A-BIM cells, Caspase-Glo 3/7 luminescence, 3 h; percent of clofoctol response, vehicle zero; hit rate 0.066% among 330,000;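 active = over half of replicate activation scores above 10%, or exactly half above 10 with the replicate mean above 10; inconclusive = replicate mean below 10 yet half the replicates above 10; inactive = over half of replicates below 10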;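 also: wells of about 30 µL received 50 nL stock; many hits fall short of the cut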
# LANA-H2B inh: blocks KSHV LANA binding to histone H2A/H2B; Q9QR71; cell-free LANA-H2A/H2B peptide, fluorescence polarization; inhibition, % (no concentration beside the values); hit rate 0.6% among 320,000; in the data active = inhibition mostly above about 10%, no sharp cut-off; inactive = mostly below about 6.7%;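 also: stock transfer was 7.5 nL into about 10 µL; 0% = median of vehicle wells and 100% = median of positive control wells; one replicate is shown; the record names a cut of 25% in any replicate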
# HNF4A DNA FP: change in binding of human HNF4 alpha to DNA. hit rate 0.3% among 360,000. HNF4a-FITC DNA binding, fluorescence polarization, 1 h. P41235. activity change, % at 10 µM; in the data active = activity change above about 30%, passing the limit was not always enough;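 also: controls were the assay level and a saturating level of protein; the project sought stronger binding though the title names inhibitors; some compounds called inactive have numbers as strong as hits; positive values seem to mean higher polarization but the record does not say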
# Target sequence (P41235 whole entry, looked up): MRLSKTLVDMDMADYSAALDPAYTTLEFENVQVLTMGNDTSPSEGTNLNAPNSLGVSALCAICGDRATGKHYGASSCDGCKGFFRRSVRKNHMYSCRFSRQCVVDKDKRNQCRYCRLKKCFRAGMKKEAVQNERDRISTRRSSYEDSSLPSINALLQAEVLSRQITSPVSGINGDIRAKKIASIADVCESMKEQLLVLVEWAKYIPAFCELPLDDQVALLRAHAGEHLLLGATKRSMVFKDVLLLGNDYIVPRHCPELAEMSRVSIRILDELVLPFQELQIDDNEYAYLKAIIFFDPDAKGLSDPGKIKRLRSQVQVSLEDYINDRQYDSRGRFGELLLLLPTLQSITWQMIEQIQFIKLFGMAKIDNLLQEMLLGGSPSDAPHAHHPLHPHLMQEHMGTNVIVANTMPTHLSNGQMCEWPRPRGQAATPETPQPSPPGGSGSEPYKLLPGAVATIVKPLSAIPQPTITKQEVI
# The depositor's hits bear a star; i = inactive; ? = inconclusive; nt = not tested or not shown.
# Results follow in this order: Ecoli growth, Vif A3G, UCH37 inh, B2AR ag, A1 inh, LANA-H2B inh, HNF4A DNA FP
> COc1cc(OC)cc(C(=O)OCC(=O)Nc2cccc(S(=O)(=O)NC3=NCCCCC3)c2)c1
→ 0.7, -12%, 5.2, 1, 0.5, -2.1, 4.1
> Cn1c(SCC(=O)c2ccccc2)nnc1-c1cccc(N)c1
→ 0.78, 0%, 0.0, -2, -0.6, -0.3, -4.4
> C=CCn1c(COc2cccc3ccc(C)nc23)nnc1SCC(=O)OC
→ 0.73, -6%, -7.6, 39, 0.4, -1.4, 2.4
> CCC(C)(C)NC(=O)c1cccc(NC(=O)C(C)C)c1
→ 0.67, nt, 0.3, -7, 0.5, -5.0, 6.8
> Cn1c(-c2c(N)n(CCc3ccccc3)c3nc4ccccc4nc23)nc2ccccc21
→ 0.76, 1%, -103, -13, 0.3, -2.7, 22
> COc1ccc(N(C(=O)CNC(=O)c2ccco2)C(C(=O)NCC2CCCO2)c2ccccc2)cc1Cl (stereo unspecified)
→ 0.67, nt, 2.3, -5, 1.2, -2.9, 0.1
> O=C(O)CC(c1cccc(Cl)c1)n1cccc1 (stereo unspecified)
→ 0.72, 1%, 1.7, -1, 0.1, -5.3, 2.1
> CC1CCC2(CC1)NC(=O)N(CC(=O)N1CCN(C(=O)c3ccco3)CC1)C2=O (stereo unspecified)
→ 0.67, 2%, 2.5, -6, 0.6, -7.8, -3.6
> CCOC(=O)c1sc(N)c(C(=O)Nc2ccccc2)c1C
→ 0.7, nt, 4.9, -5, -0.7, -2.9, 7.4
> Oc1ccccc1C1=NCCNC(C(F)(F)C(F)F)=C1
→ 0.62, 30%, 6.8, -12, 0.3, -3.2, -1.9
> Cc1ccc(S(=O)(=O)N(CC(=O)Nc2cccnc2)c2ccccc2C)cc1
→ 0.69, nt, 4.9, -5, -0.4, -4.2, -2.1
> O=C(Nc1ccccc1)NC1CS(=O)(=O)CC1O (stereo unspecified)
→ 0.68, -4%, 1.0, 8, -0.1, -1.9, -0.3
> O=C(O)c1ccc(N=NN2CCCCCC2)cc1
→ 0.67, nt, 7.3, 2, -2.9, 1.4, 0.2
> COc1ccc(C(=O)Nc2nnc(SCC(=O)NCC3CCCO3)s2)cc1OC (stereo unspecified)
→ 0.7, nt, 1.1, 10, -0.3, -4.3, 5.4
> COC(=O)C(CCCCN1C(=O)C2C3C=CC(C3)C2C1=O)N1C(=O)C2C3C=CC(C3)C2C1=O (stereo unspecified)
→ 0.73, 2%, -2.9, 8, 0.6, -5.0, 0.3
> N#CCCN1CCN(Cc2ccccc2)CCC1=O
→ 0.67, nt, 1.8, -2, 0.3, -2.1, -5.1
> Cc1cccc(C)c1NC(=O)COC(=O)c1cc(-c2cccnc2)nc2ccccc12
→ 0.69, 41µM*, -5.9, -13, -0.2, 1.4, 5.8
> CCc1ccc2[nH]c(=O)c(CN(Cc3ccccc3)C(=O)Nc3ccccc3OC)cc2c1
→ 0.69, 3%, -2.3, -5, 0.4, -7.1, 0.2
> O=[N+]([O-])c1ccccc1NCc1ccc(Cl)cc1
→ 0.65, 11%, 5.2, nt, 1.2, -5.6, nt
> Cc1cc(C)n2nc(C(=O)OCC(=O)c3cc(C)n(CC4CCCO4)c3C)nc2n1 (stereo unspecified)
→ 0.67, -8%, 3.5, -4, 0.1, -1.4, -1.8
> CCC(NC(=O)c1cccc(Cn2cc([N+](=O)[O-])cn2)c1)c1ccc(C(C)C)cc1 (stereo unspecified)
→ 0.68, 8%, 3.0, 3, 3.3, -2.9, -2.0
> O=C(COC(=O)CNS(=O)(=O)c1ccc2ccccc2c1)Nc1ccccc1Sc1ccccc1
→ 0.71, nt, 6.3, nt, 0.4, 1.5, -0.5
> Cc1cccc(OCCC(=O)Nc2ccc(F)c(Cl)c2)c1
→ 0.65, nt, 3.1, -3, 0.1, 0.3, -1.8
> NC(=O)C1CCN(c2nc(-c3ccccc3-c3ccccc3)cs2)CC1
→ 0.77, nt, 3.0, 14, 0.5, 1.8, -0.7
> Cc1ccnc(NC(=O)CCC(=O)N(CC(=O)NC(C)(C)C)c2ccc3c(c2)OCO3)c1
→ 0.67, nt, 3.0, 2, 0.3, 2.6, -2.6
> CCOC(=O)c1c(-c2ccccc2)oc2ccc(OCC(O)CN(C)C)cc12 (stereo unspecified)
→ 0.65, 4%, -285, 8, -1.1, -2.3, 1.6
> CN(C(=O)c1ccncc1)c1nnc(-c2cnccn2)s1
→ 0.72, -3%, -3.0, -7, 0.1, 1.1, 1.5
> CCOC(=O)c1c(NC(=O)Cn2nnc(-c3ccc(Cl)cc3)n2)sc(C)c1C
→ 0.73, 2%, -1.3, -1, -1.0, 3.5, -3.2
> CCOC(=O)N1CCC2(CC1)C(C#N)=C(N)OC1=C2C(=O)CC(C)C1 (stereo unspecified)
→ 0.74, 2%, 2.6, -2, 0.7, 3.7, -1.4
> CCOC(=O)c1c(NC(=O)CSc2nnnn2C)sc(C(=O)N(C)C)c1C
→ 0.7, 1%, 0.2, 7, -0.3, 1.1, -1.1
> CCc1ccc(NC(=O)CS(=O)CC(=O)Nc2ccc(N3CCOCC3)cc2)cc1 (stereo unspecified)
→ 0.67, nt, 5.1, 3, -0.7, 2.7, -3.6
> Cc1nc2cc(-c3ccccc3)[nH]n2c(=O)c1C
→ 0.64, nt, -13, 3, -2.5, 0.4, 1.3
> Cc1ccc(NC(=O)CSc2nc3ccccc3c3nc4ccccc4n23)cc1
→ 0.76, 2%, -2.3, 1, 0.2, 5.8, -1.3
> CC(NS(C)(=O)=O)C(c1cccs1)N1CCN(c2ccc(F)cc2)CC1 (stereo unspecified)
→ 0.66, 14%, 2.7, 4, -0.2, 0.3, -2.6
> COc1ccc(N(C(C)C(=O)Nc2cccnc2)S(C)(=O)=O)cc1 (stereo unspecified)
→ 0.73, 7%, -0.3, -14, 0.8, 6.4, -0.5
> CC(=O)N1CCOc2ccc(S(=O)(=O)N3CCC(C(=O)NCc4ccccc4)CC3)cc21
→ 0.66, nt, 3.5, -6, 0.7, -1.4, -2.2
> Cc1cc(C)cc(Nc2ncc3c(n2)CCCC3=O)c1
→ 0.69, 0%, 2.3, -4, -2.7, 2.5, -3.8
> CCOC(=O)C1=C(COC(=O)/C=C/c2cccc([N+](=O)[O-])c2)NC(=O)NC1C (stereo unspecified)
→ 0.69, -5%, 4.0, 16, -0.7, -2.5, -0.7
> Cc1cc(C(=O)COC(=O)c2ccc(O)cc2)c(C)n1-c1ccccc1F
→ 0.68, 28%, 3.7, 4, -3.0, -0.1, 1.6
> C/C=C(\C)CN1CCC(Oc2ccc(C(=O)NCc3ccccn3)cc2)CC1
→ 0.74, -3%, 1.4, -3, -0.5, 0.6, 0.6
> CC(C)C(=O)Nc1ccc(Cc2ccc(NC(=O)C(C)C)c(O)c2)cc1O
→ 0.63, -1%, 2.5, -5, 0.1, -0.1, -0.4
> CCCCN(C)CCn1c(=S)[nH]c2cc(OCC)c(OCC)cc2c1=O
→ 0.7, 6%, -173, 0, 0.0, i, 1.1
> O=C(Nc1cccnc1)c1cc(-c2ccco2)on1
→ 0.68, 16%, 2.5, -12, -0.6, 12, 1.0
> CC(C)N(C(=O)CSc1nnc(CNc2ccc(F)cc2)o1)C(C)C
→ 0.76, nt, -4.4, 2, -1.2, -0.8, 3.7
> O=C(Nc1ccc(Cl)cc1)c1cc2c(cc1O)[nH]c1ccccc12
→ 0.17*, -2%, -17, 29, 0.8, 15, 4.1
> Cc1cccc(C)c1N1C(=O)CC(N(O)c2ccccc2)C1=O (stereo unspecified)
→ 0.72, 19%, 0.3, 2, 0.7, 5.3, -1.7
> Cc1sc2ncnc(SCC(=O)NNC(=O)c3ccco3)c2c1C
→ 0.69, nt, 1.3, -2, 0.4, -8.7, -3.2
> O=C(O)CN1C(=O)/C(=C/c2ccsc2)SC1=S
→ 0.69, -2%, 12, 8, 0.9, 4.2, -1.5
> COc1ccc(/C=N/NC(=O)c2nc(-c3ccccc3)cc(-c3ccccc3)n2)cc1
→ nt, 2%, nt, -6, -1.1, -0.7, -0.3
> COCCOC(=O)c1ccc(NC(=O)COc2ccc([N+](=O)[O-])cc2)cc1
→ 0.63, 11%, 4.7, -6, 0.6, -1.9, 1.5
> COc1cc(/C=N/NC(=O)c2cc(C)oc2C)ccc1O
→ nt, nt, nt, 0, -1.2, 0.4, 1.8
> COc1ccc(-c2nnc(COc3ccc(Br)cc3C)o2)cc1
→ 0.63, nt, 2.8, -4, -0.6, -0.2, 0.0
> CC(C)Cc1cc(C(=O)Nc2cccc(O)c2)no1
→ 0.65, 68%, 0.2, -7, -7.6, 1.9, 0.3
> Cc1nc(-n2cc(F)c(=O)[nH]c2=O)c2nc(C)oc2n1
→ 0.67, ?, 2.2, 8, -1.0, -1.0, -0.5
> Cc1cccc(C(=O)Nc2ccc(NC(=O)CN3CCOCC3)cc2)c1
→ 0.65, nt, 3.1, 0, 0.5, -5.4, -0.3
> O=C(COc1ccccc1F)OCC(=O)c1ccc([N+](=O)[O-])cc1
→ 0.68, nt, 2.7, 21, -0.3, -5.3, 3.8
> Cc1cc(C(=O)NC2CC(C)(C)Cc3c2cnn3-c2ccccc2)n[nH]1 (stereo unspecified)
→ 0.69, nt, 8.1, -4, 0.3, -0.4, 3.4
> CCN(CC(=O)NC(=O)NC1CCCC1)Cc1ccccc1
→ 0.72, -3%, 3.3, -1, -0.8, 4.3, 1.7
> Cc1cccc(N2CC(C(=O)OCC(=O)c3ccc(OC(=O)c4cccs4)cc3)CC2=O)c1C (stereo unspecified)
→ 0.65, -1%, 2.0, 3, -0.3, 2.4, 2.0
> Cc1cccc(NC(=S)NCc2ccc3c(c2)OCO3)c1C
→ 0.69, -2%, 2.2, 5, 0.4, 1.3, 1.2

# (listing goes on)
# Results follow in this order: Ecoli growth, Vif A3G, UCH37 inh, B2AR ag, A1 inh, LANA-H2B inh, HNF4A DNA FP
> O=C1C2CCCN2C(=S)N1c1ccc(Cl)cc1 (stereo unspecified)
→ 0.71, nt, -1.5, -5, 1.0, -2.7, -1.2
> CCOc1ccc(C2=NNC(c3cccs3)=Nc3ccc(OC)cc32)cc1OCC
→ 0.77, nt, 9.5, -13, 2.2, -2.5, 6.4
> COC(=O)c1sccc1NC(=O)Nc1cc(C)cc(C)c1
→ 0.69, nt, -2.9, 3, 0.6, 3.1, -0.9
> O=C(NNC(=S)Nc1ccccc1Cl)C1CC1
→ 0.72, 14%, -0.5, 5, 0.6, -5.6, -2.1
> COc1ccc(-n2c(C)cc(/C=C3\SC(=S)N(Cc4ccco4)C3=O)c2C)cc1
→ 0.69, ?, 5.5, -242, 0.2, -4.4, 54*
> Cc1ccc(C(C)NC(=O)c2ccc3c(c2)OCO3)cc1C (stereo unspecified)
→ 0.74, -7%, -0.3, -12, 0.1, 3.9, -2.9
> CCNC(=S)N=Nc1c(O)n(Cc2ccc(Cl)cc2)c2ccccc12
→ 0.7, -4%, 4.7, 0, -0.1, nt, -1.9
> COc1ccc(OC)c(S(=O)(=O)N2CCN(CC(O)CN3CCOCC3)CC2)c1 (stereo unspecified)
→ 0.67, 6%, 1.3, -6, nt, nt, -0.5
> CC(C)C(C(=O)NC1CCCC1)N(CC1CCCO1)C(=O)CNS(=O)(=O)c1ccccc1 (stereo unspecified)
→ 0.65, nt, 2.9, 17, 0.3, 0.7, -1.7
